AID504770 – E. coli YBA685 growth inhibition, screen for V. cholerae RctB inhibitors. E. coli YBA685 rctB-dependent plasmid, OD600 growth, 3 h; active compounds read low. z-score (test concentration not listed). actives 0.27% (n = 130,000). AID 504770;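 active means z-score under -2 on both plates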;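 further: wells of about 30 µL received 100 nL stock; score is relative to mean and SD of the test wells; the first replicate is given; strong numbers were not always called active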
Ba CapD inh – CapD enzyme inhibition | purified CapD enzyme, fluorescence intensity read-out; active compounds read low; some hits fall short of the stated cut | z-score (concentration not given with the values) | actives 0.23% (n = 140,000);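 active means z-score under -4 in either of two replicates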;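 further: stock transfer was 100 nL into about 40 µL; score is relative to mean and spread of the plate; one replicate is shown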
Starred values were filed as active, the others as inactive; · = no result given; & = joins results of further samples.

SMILES	AID504770	Ba CapD inh
Cc1cc(C)nc(NS(=O)(=O)c2ccc(-n3cccc3)cc2)n1	-0.4	-0.38
O=C(c1cccc(Cl)c1)c1cc2cc([N+](=O)[O-])ccc2o1	·	0.21
c1ccc(-c2csc(Nc3nc(N4CCOCC4)nc(N4CCOCC4)n3)n2)cc1	·	0.67
COc1cccc(NS(=O)(=O)c2cc(C(=O)N3CCN(C)CC3)ccc2NCc2ccccc2OC)c1	·	2.5
CCSc1nc2ccccc2[nH]1	0.25	0.21&-0.52
O=C(Nc1ccccc1N1CCCC1)c1ccc(CSc2ncn[nH]2)cc1	-0.5	·
CCOC(=O)C1=C(C)N=c2s/c(=C/c3ccc(Cl)cc3)c(=O)n2C1c1ccc(OC(C)=O)cc1 (stereo not given)	·	-0.29
COc1cccc2cc(/C(C)=N/Nc3ncc(C(F)(F)F)cc3Cl)oc12	·	2.9
O=C(Nc1ncnc2sc3c(c12)CCCC3)c1ccc(F)cc1	-0.75	0.5
CN1CCN(C(CC(=O)Nc2cccc3ccccc23)C(=O)O)CC1 (stereo not given)	0.2	·
O=C(O)c1ccccc1/C=N/Nc1cc(Cl)ccc1Cl	·	0.32
CC(C)N(C(=O)CSc1nncn1-c1ccccc1)c1ccccc1	0.1	·
CCOC(=O)c1ccc(CSc2n[nH]c(C)n2)o1	-1.2	0.23
O=C1c2ccccc2C(=O)c2cc(S(=O)(=O)Nc3ccc(C(=O)N4CCOCC4)cc3)ccc21	·	-0.26
COc1cccc(C(=O)NCC(=O)NN)c1	-0.05	·

Overlap with the part before: three entries, followed by the next part.
SMILES	AID504770	Ba CapD inh
CCOC(=O)c1ccc(CSc2n[nH]c(C)n2)o1	-1.2	0.23
O=C1c2ccccc2C(=O)c2cc(S(=O)(=O)Nc3ccc(C(=O)N4CCOCC4)cc3)ccc21	·	-0.26
COc1cccc(C(=O)NCC(=O)NN)c1	-0.05	·
C/C(=N\NCc1cn2ccccc2n1)c1ccccc1	-0.05	·
COc1ccc(C(C#N)N2N=C(C)CC2c2ccccc2)cc1OC (stereo not given)	1.5	·
C=CCNC(=O)c1cc(-c2ccc(Cl)c(Cl)c2)on1	-0.45	2.9
CCCCCCC1C(=O)NC(=S)NC1=O	·	0.015
O=C(Nc1c2c(nn1-c1ccc(Cl)cc1)CS(=O)(=O)C2)c1ccc(S(=O)(=O)N2CCCCC2)cc1	·	0.06
O=S(=O)(NCCc1ccncc1)c1cc(C(F)(F)F)cc(C(F)(F)F)c1	·	-0.88&0.095
N#Cc1ccc(OCC(=O)Nc2ccc(-c3cn4ccsc4n3)cc2)cc1	-2.4	·
CCOC(=O)C1=CN(c2ccc(C)cc2)C=C(C(=O)OCC)C1c1cccs1	0.05	0.78
CC(C)N(C(=O)CSC1=NCCS1)c1ccccc1	0.45	-0.05
CC(NC=O)c1nc2ccccc2n1Cc1ccccc1 (stereo not given)	0.15	-0.07
COc1ccc(/C=N/c2c(-c3ccco3)nc3ccccn23)cc1OC	-0.05	-2.2
O=C(CN1CCN(CCO)CC1)N1c2ccccc2Sc2ccc(Cl)cc21	·	0.075
N=c1c2c(n(Cc3ccc(F)cc3)c3c1CCC3)CCC2	0.55	0.22
c1ccc2nc(N3CCOCC3)cnc2c1	-0.9	0.4
COc1c(C(=O)NC(CCCCNC(=O)OCc2ccccc2)C(=O)OC(C)(C)C)cnc2c1c(C)nn2C (stereo not given)	·	0.49

A second format for part of the listing above:
molecule | AID504770 | Ba CapD inh
COc1cccc(C(=O)NCC(=O)NN)c1 | -0.05 | ·
CC(NC=O)c1nc2ccccc2n1Cc1ccccc1 (stereo not given) | 0.15 | -0.07

Continued:
SMILES	AID504770	Ba CapD inh
C1CCN(CCC2CCCCN2)CC1 (stereo not given)	0.7	-1
OC(COc1ccc(-c2csnn2)cc1)CN1CCN(C(c2ccccc2)c2ccccc2)CC1 (stereo not given)	-0.05	-1.9
CSC1=NC2(CCCCC2)CC12C=CC(=O)C=C2	0.2	0.035
CCOc1ccc(N/C(SCc2ccccc2C)=C(/C#N)C(N)=O)cc1	·	-0.36
Cc1cc(C(=O)NN2CCOCC2)cs1	0.45	1.2
COc1ccc(OCCN2C(=O)c3ccccc3S2(=O)=O)cc1	-0.15	·
CCC(=O)Nc1ncnc2oc(-c3ccccc3)c(-c3ccccc3)c12	·	73
CC(=O)Nc1ccc(S(=O)(=O)NCC(O)c2ccccc2)cc1 (stereo not given)	3	0.42
O=C(Nc1c2c(nn1-c1ccc([N+](=O)[O-])cc1)CS(=O)(=O)C2)c1cc(Br)ccc1Cl	·	0.07
NC(=O)c1ccc(NC(=O)Cn2ccc(C(F)(F)F)n2)cc1	0.5	·
CCSCCOC(=O)C1=C(C)NC2=C(C(=O)CC(C)(C)C2)C1c1cc(Br)ccc1OC (stereo not given)	·	31
O=C(CSc1nnc(-c2cc3ccccc3[nH]2)n1-c1ccccc1)NC1CCS(=O)(=O)C1 (stereo not given)	-0.1	·
Cc1cc2nc(N3CCC(C)CC3)c3ccccc3n2n1	-0.8	·
C=CCNC(=O)c1ccc2c(=O)n(C3CCCC3)c(=S)[nH]c2c1	0.7	-0.9
Cc1ccc(S(=O)(=O)NCC(c2ccccc2)N(C)C)cc1 (stereo not given)	-0.3	0.055
Cc1c(-c2nnnn2-c2ccc(Cl)cc2)cnn1-c1ccccc1	1	0.69
Cc1ccc(-c2csc(NC(=O)COC(=O)c3cccs3)n2)cc1	0.55	·
Cc1ccsc1C(=O)NC(C)C(c1cccs1)N1CCCC1 (stereo not given)	0	-0.17
CC(C)CNC(=O)c1cc(-c2ccccc2F)no1	0.1	-0.38
CCS(=O)(=O)N1CCN=C1SCc1ccccc1C	-0.25	-0.45
CC(=O)OC1CCC2(C)C3CCC4(C)C(CC5OC6(CCC(C)CO6)C(C)C54)C3CC(=O)C2(O)C1 (stereo not given)	·	-0.51
COCC(=O)N(c1ccc(OC)cc1)C1C=CS(=O)(=O)C1 (stereo not given)	-0.7	0.17
O=S(=O)(c1ccccc1)N1CCc2ccccc21	0.1	·
COc1cc(CN(CCN(C)C)Cc2ccccc2)cc(OC)c1	0.15	0.075
COc1ccc(NC(=O)C(Cc2c[nH]c3ccccc23)NC(=O)c2ccccc2)cc1 (stereo not given)	·	-0.53
CSc1nc(-c2ccccc2)nc(Nc2ccccc2)c1C#N	-0.45	1.4
CCN(CC)C(=O)Cn1cc(S(=O)(=O)CC(=O)Nc2ccccc2C(F)(F)F)c2ccccc21	0.15	0.065
COC(=O)c1sccc1NC(=O)COc1ccsc1C(=O)OC	·	-0.97
COCCOC(=O)C1=C(C)NC2=C(C(=O)CC(c3ccc(OC)c(OC)c3)C2)C1c1cccc(C)c1 (stereo not given)	·	0.38
COCCOC(=O)C1=C(COC)OC(N)=C(C(=O)OC)C12C(=O)Nc1ccccc12 (stereo not given)	·	-0.3
Cc1cccc(Oc2ccc(NC(=O)CCCC(=O)O)cc2)c1	-0.1	0.46
O=C(O)CSc1c2c(nc3cc(C(=O)NCC4COc5ccccc5O4)ccc13)CCC2 (stereo not given)	0.15	51
O=C(NC1CCCC1)c1cc(=O)[nH]c2ccccc12	2.7	1.3
CCCN(CCC)C(=O)c1cc(Cl)ccc1OC	-0.35	0.33
CC1(C)Cc2c(sc3ncn4nc(COc5ccc(Cl)cc5)nc4c23)C(C)(C)N1	0.15	0.07
O=C(Nc1nc2c(s1)CCCC2)c1ccc(S(=O)(=O)N2CCc3ccccc32)cc1	·	-0.47
O=C1CCC2(C(=O)OCc3c(Cl)cccc3Cl)N1c1ccccc1C(=O)N2C1CC1 (stereo not given)	-0.6	·
CCCn1c(SCC(=O)NCC(F)(F)F)n[nH]c1=O	-0.95	·
O=C(Oc1cccc(Br)c1)c1cccnc1Cl	0.9	0.73
FC(F)(F)c1cccc(Oc2nnc(Cc3ccccc3)c3ccccc23)c1	·	0.43
CC1(C)CC(=S)C=C(N2CCCCC2)C1	0.1	47
O=C(O)CC(c1ccccc1)c1cc(Cl)ccc1O (stereo not given)	-0.55	1.5
CC(=O)OC1=C(Sc2ccc(Cl)cc2)C(=O)CCC1	-0.4	-0.41
c1ccc(OCCSc2nc3ccccc3[nH]2)cc1	0.25	0.32
OC(CNCc1ccc(Cl)cc1)COc1ccc(F)cc1Cl (stereo not given)	-0.05	-0.17
O=C(NC1CCCc2ccccc21)C1CCN(c2nnc(-n3cccc3)s2)CC1 (stereo not given)	-0.55	-0.15
O=C(O)CCc1ccc(-c2cccs2)[nH]1	-1.1	·
CCCn1c(-c2ccccc2)nc2c(=O)n(C)c(=O)[nH]c21	0.35	50
COc1cccc(OC)c1C(=O)N1CCN(Cc2cccc3ccccc23)CC1	0.3	0.005
CC(=O)n1c2ccccc2c2cc(Br)ccc21	-0.7	21
Cc1ccc(C(C)C)c(OC(=O)N(C)C)c1CN(C)C	-1.4	-0.08
CC(Sc1nc(-c2ccccc2)c(-c2ccccc2)[nH]1)C(=O)O (stereo not given)	-1.4	48
COC(=O)C(C)Sc1nc2c([nH]c3ccccc32)c(=O)n1C (stereo not given)	-0.15	0.11
Cn1c(C(O)c2ccccc2)nc(Cl)c1Cl (stereo not given)	-0.9	0.22
O=C(Oc1ccc(C2SCCS2)cc1)c1ccccc1Cl	-0.7	-0.14
CCOC(=O)c1ccc2nc(C)c(CC)c(Cl)c2c1	-0.25	·
Cn1c(CSc2cc(C(F)(F)F)nc3ccccc23)n[nH]c1=S	-0.9	-0.01
O=C(CSc1nc2c(sc(=S)n2Cc2ccco2)c(=O)n1-c1ccc(F)cc1)N1CCCC1	·	-0.13
CC(C)COC(=O)N1c2ccccc2C=CC1OCC(C)C (stereo not given)	-0.05	·
O=C(CSc1nnc(-c2cccnc2)o1)NCCc1ccccc1	2.2	·

Record cards (already shown).
CC(Sc1nc(-c2ccccc2)c(-c2ccccc2)[nH]1)C(=O)O (stereo not given) is listed as AID504770: -1.4; Ba CapD inh: 48
O=C(CSc1nc2c(sc(=S)n2Cc2ccco2)c(=O)n1-c1ccc(F)cc1)N1CCCC1 is listed as AID504770: ·; Ba CapD inh: -0.13
CCCn1c(-c2ccccc2)nc2c(=O)n(C)c(=O)[nH]c21 is listed as AID504770: 0.35; Ba CapD inh: 50

Returning to the listing with the 2 entries that preceded the break.
SMILES	AID504770	Ba CapD inh
CC(C)COC(=O)N1c2ccccc2C=CC1OCC(C)C (stereo not given)	-0.05	·
O=C(CSc1nnc(-c2cccnc2)o1)NCCc1ccccc1	2.2	·
CCOC(=O)c1cc(-c2ccc(F)cc2)n(CCC(=O)Nc2nc3ccc(C)cc3s2)c1C	-0.2	-0.92
COc1ccc(OC)c(C2C(N3C(=O)c4c(Cl)c(Cl)c(Cl)c(Cl)c4C3=O)C(=O)N2c2ccc(C)c(F)c2)c1 (stereo not given)	·	-0.3
CC(C)C(=O)NCCSc1c(-c2ccccc2)[nH]c2ccccc12	-0.25	2.2
CCN(CC)CCN1C(=O)Cn2c(C)c(C)c3cccc1c32	-0.65	0.03
CCOC(=O)N1CCN(C(=O)c2ccc3c(c2)N(C)C(=O)/C(=C/c2ccc(OC)cc2)S3)CC1	0.5	-1
COc1cc(NC(=O)c2sc3nc(C)nc(N4CCOCC4)c3c2C)cc(OC)c1OC	·	-0.52
CSc1cccc(NC(=O)CSc2nc3ccccc3o2)c1	-1.2	11
O=C(Nc1nnc(SCc2ccccn2)s1)C1CC(=O)N(c2ccccc2)C1 (stereo not given)	1.2	·
COc1ccc(S(=O)(=O)Nc2cc(C)c(C)cc2[N+](=O)[O-])c(OC)c1	·	0.065
CCOC(=O)c1cn2c3c(c(F)c(F)c(F)c3c1=O)SC(N1CCCC1)=N2	-0.8	-0.47
CC(NC(=O)c1ccc(=O)[nH]c1)C12CC3CC(CC(C3)C1)C2 (stereo not given)	-1	0.08
CCNS(=O)(=O)c1cccs1	-0.55	·
CCC(C)NS(=O)(=O)c1ccc(OC)c(OC)c1 (stereo not given)	-2.4	0.77
NC(=O)c1ncoc1-c1ccccc1Cl	-0.55	0.71
Cc1ccc2oc(=O)n(CCc3noc(-c4ccccc4)n3)c2c1	0.25	-1.5
COc1cc(CSC2=NCCN2)cc(OC)c1OC	-0.45	-0.99
O=C(Nc1ccc(Cl)cc1)O/N=C1\CCCCC1Cn1ccnc1 (stereo not given)	-0.95	0.36
OC(c1cc(C(F)(F)F)nc2c(C(F)(F)F)cccc12)C1CCCCN1 (stereo not given)	0.15	-2.6&34
Cc1ccc(S(=O)(=O)CCC(=O)Nc2nccs2)cc1	-1	-0.44
CC(C(=O)Nc1ccccc1)N(C)CCOc1ccccc1 (stereo not given)	-1.2	·
CC(C)(C)c1ccc(C(=O)NNC(=O)c2ccccc2N)cc1	·	1.4
O=C(Nc1cccnc1)c1cc(-c2ccco2)on1	-0.05	0.44
Cc1nc2nc(CSc3ccc(Cl)cc3)cc(=O)n2[nH]1	-0.05	-0.37
C=CCN(C(=O)Nc1ccccc1)C1CC(=O)N(c2ccc(OC)cc2)C1=O (stereo not given)	-0.9	0.49
COc1ccc(NC(=O)c2cc(CN3C(=O)c4ccccc4C3=O)ccc2OC)cn1	1.8	·
CNC(=S)N(Cc1ccccc1)Cc1cccnc1	-0.25	0.9
CCOC(=O)C1=C(C(=O)OCC)SC2(S1)C(C(=O)OCC)=C(C(=O)OCC)SC1=C2c2ccccc2N(C(=O)C(C)C)C1(C)C	·	-0.095
O=C(C(C(=O)N1CCc2ccccc21)c1ccccc1)N1CCc2ccccc21	·	0.46

Screening results deposited in PubChem by ICCB-Longwood Screening Facility, Harvard Medical School.
